RXFP1 agonist – agonists of human relaxin receptor RXFP1 | Q9HBX9 | HEK293T-RXFP1 cAMP TR-FRET, 30 min; response scale: percent of porcine relaxin response, buffer zero | Potency, µM (series often up to 57.5 µM), for inactives: top-dose activation, actives largely listed as activators | 370,000 tested, 0.3% active; further: potency means the concentration at half of the fitted maximal effect; on the % scale 0 is the no-effect control and ±100 the full control effect; nearly all actives have a fitted effect of over 60% in size; many of its hits are not listed in these tables
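HEK293T cells stably expressing RXFP1 were pretreated with the PDE4 inhibitor Ro 20174, exposed to compounds for 30 min at 37C, lysed, and cAMP was read by TR-FRET. Data normalized to buffer (basal) and 29 nM porcine relaxin (100%).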
D2 potentiator – positive allosteric modulators of human D2 dopamine receptor; P14416; HEK293 T-REx D2, calcium flux, EC20 dopamine potentiation; potentiation, % at 10 µM; 340,000 tested, 0.34% active; AID 485347;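 active means potentiation over 3 SD above the plate norm, cut at about 30% in these data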; further: 0% is about no effect
Target sequence (P14416 whole entry, looked up): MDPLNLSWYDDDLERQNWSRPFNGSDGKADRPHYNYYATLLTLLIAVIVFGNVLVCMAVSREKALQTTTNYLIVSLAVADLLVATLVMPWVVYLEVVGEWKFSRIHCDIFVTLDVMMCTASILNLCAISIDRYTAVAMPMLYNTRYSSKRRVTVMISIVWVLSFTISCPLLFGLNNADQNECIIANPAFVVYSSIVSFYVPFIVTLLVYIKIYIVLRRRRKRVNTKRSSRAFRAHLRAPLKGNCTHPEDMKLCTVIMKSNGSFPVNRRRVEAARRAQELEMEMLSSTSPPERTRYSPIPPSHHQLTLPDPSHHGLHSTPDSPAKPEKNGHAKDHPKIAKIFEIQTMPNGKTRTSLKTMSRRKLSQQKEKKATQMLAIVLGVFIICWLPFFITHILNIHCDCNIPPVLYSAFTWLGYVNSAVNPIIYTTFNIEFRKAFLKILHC
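Primary screen. Calcium kinetics in induced HEK293 T-REx D2 cells: compound pre-addition 180 s, EC20 dopamine, 180 s more.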
RXFP1 antagonist – blocks the human relaxin receptor RXFP1; Q9HBX9; AID 1259400; HEK293-RXFP1, relaxin-stimulated cAMP HTRF, 30 min; stronger effect = lower value; activity change, negative = inhibition, % at 57.5 µM; 350,000 tested, 0.59% active;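 active means activity change of -60% or lower, but not beyond a set lower limit; inconclusive means change between -60% and -40%, or beyond the set limit; inactive means change above -40%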; further: on the % scale 0 is the no-effect control and ±100 the full control effect
D1 potentiator – potentiators of human D1 dopamine receptor; 360,000 tested, 0.036% active; potentiation, % at 10 µM; AID 504651; P21728; HEK293 TREx D1 cells, calcium flux, dopamine EC20 potentiation; in the data active means potentiation above about 30%; further: 0% is about no effect
Target sequence (P21728 whole entry, looked up): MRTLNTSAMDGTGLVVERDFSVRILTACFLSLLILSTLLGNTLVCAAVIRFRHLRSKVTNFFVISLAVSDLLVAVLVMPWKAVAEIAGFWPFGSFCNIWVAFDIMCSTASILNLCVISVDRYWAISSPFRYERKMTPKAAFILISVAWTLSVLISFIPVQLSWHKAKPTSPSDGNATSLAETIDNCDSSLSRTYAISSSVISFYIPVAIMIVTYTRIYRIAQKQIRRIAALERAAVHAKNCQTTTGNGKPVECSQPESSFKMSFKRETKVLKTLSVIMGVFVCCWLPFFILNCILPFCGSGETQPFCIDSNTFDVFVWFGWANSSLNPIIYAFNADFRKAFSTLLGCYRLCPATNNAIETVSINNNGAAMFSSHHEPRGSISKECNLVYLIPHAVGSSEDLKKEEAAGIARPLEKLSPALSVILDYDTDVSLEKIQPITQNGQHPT
Anesthetic bind – binds horse apoferritin like a general anesthetic. AID 485281. 350,000 tested, 0.074% active. apoferritin/1-aminoanthracene competitive binding, fluorescence. Potency, µM (doses to about 77.5 µM), without a hit: at the highest dose activity change, negative = displacement, most hits filed as inhibitors. P02791; further: potency means the concentration at half of the fitted maximal effect; on the % scale 0 is the no-effect control and ±100 the full control effect; nearly all actives have a fitted effect of over 20% in size
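In PBS, apoferritin at 10 uM is loaded with 1-AMA from a 50% saturated solution. After 10 min of compound exposure at ambient temperature, reduced 535 nm fluorescence indicates probe displacement.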
D1 antag – human D1 dopamine receptor antagonism. P21728. HEK293 TREx D1 cells, calcium flux, dopamine EC80; stronger effect = lower value. activity change, negative = inhibition, % at 10 µM. 360,000 tested, 3.2% active; in the data active means activity change below about -30%; further: on the % scale 0 is the no-effect control and ±100 the full control effect
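Cells carrying a force-coupled, tetracycline-inducible human D1 receptor report calcium flux. Each well gets a 10 s baseline, compound with 180 s monitoring, then an EC80 dopamine stimulus with a second 180 s kinetic read.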
Active calls of the source: *; & = joins results of further samples; [ ] = another dose, or the depositor's remark. Unless noted, the call rests on the fitted dose curve; in most records, active means well fitted curve in the direction sought with a large enough effect; inconclusive means small, poorly fitted or top-dose-only effect, or another doubt; inactive means no such curve, though single readings can be large; an effect the other way counts as inactive or inconclusive. These rows are one share of the data; the hit share may differ from the screen's.

`C[C@H]1C[C@@H]2[C@@H]([C@@H](O)C[C@@]3(C)[C@H]2CC[C@]3(O)C(=O)CO)[C@@]2(C)C=CC(=O)C=C12` gave Anesthetic bind 1%[29.3 µM].
`Fc1ccc(-c2csc(NC3=NCCC3)n2)cc1` gave RXFP1 agonist -0.4%, D2 potentiator -7, RXFP1 antagonist -15, D1 potentiator -3, Anesthetic bind -5% and D1 antag 0.
For Cc1cc(C)c(N)cc1C the results were RXFP1 agonist -0.6%, D2 potentiator 9 and D1 potentiator 1.
For CCCCC(CC)COC(=O)c1ccc(N(C)C)cc1 (stereo unspecified) the results were RXFP1 agonist -0.1%, D2 potentiator 10, RXFP1 antagonist -5 and D1 potentiator 0.
For CC(=O)CCc1ccccc1 the results were RXFP1 agonist 1.0%, D2 potentiator -2, D1 potentiator -3 and D1 antag -5.
Screening Cn1cc[nH]c1=S returned RXFP1 agonist -0.5%, D2 potentiator -12, RXFP1 antagonist 9, D1 potentiator -3, Anesthetic bind -4% and D1 antag -8.
C=CCc1cc(S(=O)(=O)c2ccc(O)c(CC=C)c2)ccc1O was read as RXFP1 agonist 0.9%, D2 potentiator 13, RXFP1 antagonist 9, D1 potentiator -4, Anesthetic bind -6% and D1 antag -10.
`C[C@H]1COc2c(C3(N)CC3)c(F)cc3c(=O)c(C(=O)O)cn1c23` gave RXFP1 agonist -0.3%, D2 potentiator -7, RXFP1 antagonist 8, D1 potentiator 0, Anesthetic bind 0% and D1 antag -18.
`Clc1cc(Cl)c(Cl)cc1Cl` gave RXFP1 agonist 0.4%, D2 potentiator 5 and D1 potentiator 0.
O=C(O[C@@H](C(=O)O)[C@@H](OC(=O)c1ccccc1)C(=O)O)c1ccccc1 was read as RXFP1 agonist 2.1%, D2 potentiator -8 and D1 potentiator -1.
CCC1OC(=O)C(C)C(OC2C[C@@](C)(OC)C(O)C(C)O2)C(C)C(O[C@@H]2OC(C)CC(N(C)C)C2O)[C@](C)(O)CC(C)C(=NOCOCCOC)C(C)C(O)[C@]1(C)O (stereo partly specified) was read as RXFP1 agonist 0.1%, D2 potentiator -3, D1 potentiator -2 and D1 antag 19.
CCN(CC)C(=O)c1cccc(C)c1 was read as RXFP1 agonist -0.1%, D2 potentiator 7, RXFP1 antagonist -14, D1 potentiator -4, Anesthetic bind inconclusive and D1 antag -6.
Clc1ccc(CC[C@H](Cn2ccnc2)Sc2c(Cl)cccc2Cl)cc1 was read as Anesthetic bind 8%[29.3 µM].
C=C1CC[C@H](O)C/C1=C/C=C1\CCC[C@]2(C)[C@@H]([C@H](C)/C=C/[C@H](C)C(C)C)CC[C@@H]12 was read as RXFP1 agonist 0.6%, D2 potentiator 13, D1 potentiator 2 and D1 antag 30.
`CC(C)NCC(O)COc1ccc(CCOCC2CC2)cc1` (stereo unspecified) gave RXFP1 agonist 4.0%&0.2%&-0.4%, D2 potentiator -2&0&7, RXFP1 antagonist -6, D1 potentiator 1&1&-2, Anesthetic bind -20%&-22%&-21% and D1 antag 0&-1&4.
For CC[C@H](c1ccc(O)cc1)[C@@H](CC)c1ccc(O)cc1 the results were RXFP1 antagonist -24 and Anesthetic bind -12%[29.3 µM].
For CC(C)c1ccc2c(c1)CCC1C(C)(CN)CCCC21C (stereo unspecified) the results were RXFP1 agonist 0.6%, D2 potentiator 18, RXFP1 antagonist inconclusive, D1 potentiator 17, Anesthetic bind 2% and D1 antag 69.
C=CCOC(=O)CCCCCCCC was read as RXFP1 agonist 2.1% and D1 potentiator -1.
Screening CS(=O)(=O)c1ccc([C@@H](O)[C@@H](CO)NC(=O)C(Cl)Cl)cc1 returned RXFP1 agonist -0.3%, D2 potentiator 9, RXFP1 antagonist 5, D1 potentiator 3 and D1 antag -10.
Screening CC(=O)[C@H]1CC[C@H]2C3CC=C4C[C@@H](O)CC[C@]4(C)C3CC[C@]12C (stereo partly specified) returned Anesthetic bind -1%.
NC(=O)N1c2ccccc2CC(=O)c2ccccc21 was read as RXFP1 agonist 2.6%&0.7%, D2 potentiator 9, RXFP1 antagonist -5, D1 potentiator -5&-2, Anesthetic bind -1%&9%&-1% and D1 antag -1&10.
O=C1C(CCC(O)c2ccc(F)cc2)C(c2ccc(O)cc2)N1c1ccc(F)cc1 (stereo unspecified) was read as Anesthetic bind 4%.
For O=C(O)CCCC[C@H]1SC[C@H]2NC(=O)N[C@@H]21 the results were Anesthetic bind 11%[29.3 µM].
`CC12CCC3c4ccc(O)cc4CCC3C1CC(O)C2O` (stereo unspecified) gave RXFP1 agonist 1.1%, D2 potentiator 14, D1 potentiator 5 and D1 antag 6.
Screening Nc1ccc(C(=O)NCC(=O)O)cc1 returned RXFP1 agonist -0.5%, D2 potentiator 9, RXFP1 antagonist 25, D1 potentiator -5, Anesthetic bind -3%[29.3 µM] and D1 antag -28.
Screening C[C@@]12CC[C@@H]3c4ccc(O)cc4CC[C@H]3[C@H]1C[C@@H](O)[C@H]2O returned Anesthetic bind 0%[29.3 µM].
For Oc1cc(O)c2c(c1)O[C@H](c1ccc(O)c(O)c1)[C@@H](O)C2 the results were RXFP1 agonist -0.9%, D2 potentiator 6, D1 potentiator -5, Anesthetic bind -7% and D1 antag 8.
For CC(=O)SCC(Cc1ccccc1)C(=O)NCC(=O)OCc1ccccc1 (stereo unspecified) the results were RXFP1 agonist 4.1%, D2 potentiator 1, D1 potentiator -2, Anesthetic bind -7% and D1 antag 5.
For CC(=O)c1ccc2c(c1)N(CCCN1CCC(CCO)CC1)c1ccccc1S2 the results were RXFP1 agonist 0.9%, D2 potentiator -15, RXFP1 antagonist inconclusive, D1 potentiator -7, Anesthetic bind -4%[29.3 µM] and D1 antag -102*.
CCCC[C@H]1C(=O)N(c2ccccc2)N(c2ccc(O)cc2)C1=O was read as Anesthetic bind -8%[29.3 µM].
For C=C1C[C@@]23C[C@@]1(O)CCC2[C@@]12C=CC(O)[C@](C)(C(=O)O1)C2C3C(=O)O (stereo partly specified) the results were Anesthetic bind 5%.
Screening CCCCCCCCCCCCCCCCn1cc[n+](C)c1 returned RXFP1 agonist 1.8%&1.9%, D2 potentiator -12&-9, RXFP1 antagonist -29&-8, D1 potentiator -6&-6, Anesthetic bind inconclusive and D1 antag -7&-23.
CC(C)NC[C@@H](O)COc1ccc(CCOCC2CC2)cc1 was read as Anesthetic bind -10%[29.3 µM].
O=C(O)CCCCC1SCC2NC(=O)NC21 (stereo unspecified) was read as RXFP1 agonist 4.9%&-4.3%, D2 potentiator 10&4, D1 potentiator -7&-2, Anesthetic bind 6%&-6%&0% and D1 antag -8&7.
Screening CCCC(C)CO (stereo unspecified) returned RXFP1 agonist 1.1%, D2 potentiator 14 and D1 potentiator -3.
Screening CCC1OC(=O)C(C)[C@@H](O[C@H]2C[C@@](C)(OC)C(O)C(C)O2)C(C)[C@@H](O[C@@H]2OC(C)CC(N(C)C)C2O)[C@](C)(O)CC(C)/C(=N\OCOCCOC)[C@H](C)C(O)[C@]1(C)O (stereo partly specified) returned Anesthetic bind -1%.
`N=c1ccn2c(n1)OC1C(O)C(CO)OC12` (stereo unspecified) gave RXFP1 agonist 1.2%, D2 potentiator 3, RXFP1 antagonist -3, D1 potentiator -4, Anesthetic bind 2%&0%&10% and D1 antag -7.
C[C@]12CC[C@@H]3c4ccc(O)cc4CC[C@H]3[C@@H]1C[C@@H](O)[C@@H]2O was read as RXFP1 agonist 2.5%, D2 potentiator -10, RXFP1 antagonist -5, D1 potentiator -2, Anesthetic bind -6% and D1 antag -2.
`C=CCc1ccc(OC)c(OC)c1` gave RXFP1 agonist 0.2%, D2 potentiator 6, D1 potentiator 1, Anesthetic bind 2% and D1 antag 0.
`C[C@H]1C[C@@H]2[C@H]([C@@H](O)C[C@@]3(C)[C@H]2CC[C@]3(O)C(=O)CO)[C@@]2(C)C=CC(=O)C=C12` gave RXFP1 agonist 1.2%, RXFP1 antagonist -24, D1 potentiator -1, Anesthetic bind 2% and D1 antag -23.
For CCOc1ccc(NC(C)=O)cc1N the results were RXFP1 agonist 0.9%, D2 potentiator 0 and D1 potentiator 0.

For reference, part of the list above:
CCCC[C@H]1C(=O)N(c2ccccc2)N(c2ccc(O)cc2)C1=O was read as Anesthetic bind -8%[29.3 µM].
For C=C1C[C@@]23C[C@@]1(O)CCC2[C@@]12C=CC(O)[C@](C)(C(=O)O1)C2C3C(=O)O (stereo partly specified) the results were Anesthetic bind 5%.
Screening CCCCCCCCCCCCCCCCn1cc[n+](C)c1 returned RXFP1 agonist 1.8%&1.9%, D2 potentiator -12&-9, RXFP1 antagonist -29&-8, D1 potentiator -6&-6, Anesthetic bind inconclusive and D1 antag -7&-23.
CC(C)NC[C@@H](O)COc1ccc(CCOCC2CC2)cc1 was read as Anesthetic bind -10%[29.3 µM].
O=C(O)CCCCC1SCC2NC(=O)NC21 (stereo unspecified) was read as RXFP1 agonist 4.9%&-4.3%, D2 potentiator 10&4, D1 potentiator -7&-2, Anesthetic bind 6%&-6%&0% and D1 antag -8&7.
Screening CCCC(C)CO (stereo unspecified) returned RXFP1 agonist 1.1%, D2 potentiator 14 and D1 potentiator -3.
Screening CCC1OC(=O)C(C)[C@@H](O[C@H]2C[C@@](C)(OC)C(O)C(C)O2)C(C)[C@@H](O[C@@H]2OC(C)CC(N(C)C)C2O)[C@](C)(O)CC(C)/C(=N\OCOCCOC)[C@H](C)C(O)[C@]1(C)O (stereo partly specified) returned Anesthetic bind -1%.
`N=c1ccn2c(n1)OC1C(O)C(CO)OC12` (stereo unspecified) gave RXFP1 agonist 1.2%, D2 potentiator 3, RXFP1 antagonist -3, D1 potentiator -4, Anesthetic bind 2%&0%&10% and D1 antag -7.
C[C@]12CC[C@@H]3c4ccc(O)cc4CC[C@H]3[C@@H]1C[C@@H](O)[C@@H]2O was read as RXFP1 agonist 2.5%, D2 potentiator -10, RXFP1 antagonist -5, D1 potentiator -2, Anesthetic bind -6% and D1 antag -2.
`C=CCc1ccc(OC)c(OC)c1` gave RXFP1 agonist 0.2%, D2 potentiator 6, D1 potentiator 1, Anesthetic bind 2% and D1 antag 0.
`C[C@H]1C[C@@H]2[C@H]([C@@H](O)C[C@@]3(C)[C@H]2CC[C@]3(O)C(=O)CO)[C@@]2(C)C=CC(=O)C=C12` gave RXFP1 agonist 1.2%, RXFP1 antagonist -24, D1 potentiator -1, Anesthetic bind 2% and D1 antag -23.
For CCOc1ccc(NC(C)=O)cc1N the results were RXFP1 agonist 0.9%, D2 potentiator 0 and D1 potentiator 0.

Screens deposited in PubChem by National Center for Advancing Translational Sciences (NCATS).
